Compound activity: PubChem BioAssay, National Center for Advancing Translational Sciences (NCATS)
Marburg entry inh – blocks Marburg virus binding to or entry into cells; actives 1.8% (n = 300,000); Marburg virus pseudotyped entry inhibition, cell reporter; control for the full effect not named in the record; about a third of the inactives were read at about 46 µM; Potency, µM (top dose mostly 37.8 µM), for the others: at the highest dose activity change, negative = inhibition, hits mostly inhibitors; AID 540276; active = well fitted inhibition curve with a large enough effect; inconclusive = small, poorly fitted or top-dose-only effect, or effect the other way; inactive = flat fitted curve, though single readings scatter; tested in HEK293 cells; about a fifth of its hits are not listed in these tables; also: % is scaled to controls: 0 for no effect and ±100 for the full control effect; luciferase read-out
2A StopGo – FMDV 2A StopGo reporter, luciferase signal; actives 1.2% (n = 410,000); human cells with a luciferase reporter of 2A StopGo recoding; control for the full effect not named in the record; Potency, µM (titrated, usually from 57.9 µM), for inactives: at the top dose signal change, negative = less light; AID 1159524; active = well fitted falling curve with a large enough effect; inconclusive = small, poorly fitted or top-dose-only effect; inactive = no such curve, though single readings can be large or run the other way; tested in HEK293T cells; also: % is scaled to controls: 0 for no effect and ±100 for the full control effect; nearly all actives have a fitted effect of over 45% in size; luciferase light after 4 h
NS1 function inh – influenza NS1 inhibition. S. cerevisiae slowed by influenza A NS1, growth recovery by OD600. Potency, µM (series often up to 46.1 µM), for inactives: at the top dose activity, positive = more growth. actives 0.4% (n = 270,000); active means well fitted rising curve with a large enough effect; inconclusive means small, poorly fitted or top-dose-only effect; inactive means no such curve, though single readings can be large or run the other way; also: nearly all actives have a fitted effect of over 50% in size
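Growth recovery, yeast-based: influenza A NS1 expressed in S. cerevisiae causes slow growth, and suppressors are detected by OD600. The parent strain without NS1 is used as positive control.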
Cruzain Triton – inhibitors of Trypanosoma cruzi cruzain with detergent; Potency, µM, without a hit: max response, negative = inhibition, usual class: inhibitors; actives 0.43% (n = 200,000); purified cruzain, Z-FR-AMC fluorescence, 0.01% Triton; P25779;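 also: plate controls were neutral wells for no effect and buffer without enzyme for full effect; nearly all actives have a fitted effect of over 40% in size; top concentration of the series not given in the record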
Target sequence (P25779 123-467 limits assumed): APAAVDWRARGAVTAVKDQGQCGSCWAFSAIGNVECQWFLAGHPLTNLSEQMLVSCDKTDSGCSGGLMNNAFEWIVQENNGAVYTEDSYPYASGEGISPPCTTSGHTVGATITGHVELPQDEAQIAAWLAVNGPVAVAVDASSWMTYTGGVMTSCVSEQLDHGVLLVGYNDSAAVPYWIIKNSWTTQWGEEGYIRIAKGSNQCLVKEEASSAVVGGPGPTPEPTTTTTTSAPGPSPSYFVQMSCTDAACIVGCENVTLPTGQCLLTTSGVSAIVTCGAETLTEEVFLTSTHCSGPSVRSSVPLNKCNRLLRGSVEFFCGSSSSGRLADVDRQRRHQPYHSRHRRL
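In this qHTS format, compounds are incubated with 1.5 nM cruzain for 15 min at room temperature before 2 uM Z-FR-AMC is added. Release of AMC is followed at 360/450 nm, and progress is taken as the 60 s fluorescence difference.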
Lassa entry inh – inhibitors of Lassa virus binding or cell entry. Lassa virus pseudotype entry inhibition, cell reporter; control for the full effect not named in the record. Potency, µM (doses to about 37.9 µM), without a hit: at the highest dose activity change, negative = inhibition, usual class: inhibitors. actives 1.2% (n = 300,000); active means well fitted inhibition curve with a large enough effect; inconclusive means small, poorly fitted or top-dose-only effect, or effect the other way; inactive means flat fitted curve, though single readings scatter; tested in HEK293 cells; also: % is scaled to controls: 0 for no effect and ±100 for the full control effect; nearly all actives have a fitted effect of over 50% in size; luciferase read-out
SARS PLP yeast – inhibitors of SARS-CoV papain-like protease in yeast. S. cerevisiae expressing SARS-CoV PLpro, growth rescue; control for the full effect not named in the record. Potency, µM (titrated, usually from 32.9 µM), inactives show at the top dose activity, positive = growth rescue. actives 0.19% (n = 330,000). AID 485353; active means well fitted rising curve with a large enough effect; inconclusive means small, poorly fitted or top-dose-only effect; inactive means no such curve, though single readings can be large or run the other way; also: 0% is about no effect; nearly all actives have a fitted effect of over 55% in size; growth read by luminescence after 48 h
RE007 growth inh – less growth of the S. pombe RE007 Vpr strain. actives 0.21% (n = 360,000). S. pombe RE007 Vpr strain, BacTiter-Glo ATP luminescence, 24 h; control for the full effect not named in the record. Potency, µM (series often up to 92.2 µM), without a hit: at the highest dose activity change, negative = less growth. AID 651644; active = well fitted falling curve with a large enough effect; inconclusive = small, poorly fitted or top-dose-only effect; inactive = no such curve, though single readings can be large or run the other way;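 also: % is scaled to controls: 0 for no effect and ±100 for the full control effect; nearly all actives have a fitted effect of over 50% in size; the assay follows cell death caused by Vpr and the record does not say whether a fall means rescue or toxicity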
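Fission yeast RE007 carrying one integrated HIV-1 vpr copy, seeded at OD 0.01 in PMG+AL medium with 23 nL pinned compound. Grown 24 h at 30 degrees; viability read by BacTiter-Glo luminescence after 5 min.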
Cruzain inh noDet – cruzain (T. cruzi) inhibition without detergent | P25779 | purified cruzain, Z-FR-AMC fluorescence, no detergent | Potency, µM, for the others: max response, negative = inhibition, actives largely listed as inhibitors | actives 2.3% (n = 200,000) | AID 1476;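 also: plate controls were enzyme without inhibitor for no effect and buffer without enzyme for full effect; nearly all actives have a fitted effect of over 40% in size; top concentration of the series not given in the record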
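Detergent-free condition (0.00005% Triton X-100) in acetate buffer pH 5.5 with DTT. 1.5 nM enzyme and compound were pre-mixed 15 min, then 2 uM Z-FR-AMC substrate added; reaction progress from fluorescence change between first and third reads (60 s).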
Starred values were filed as active, the others as inactive; [ ] = dose if it differs, or a comment. Unless noted, calls follow the shape of the dose curve; as a rule, active = well fitted curve in the direction sought with a large enough effect; inconclusive = small, poorly fitted or top-dose-only effect, or another doubt; inactive = no such curve, though single readings can be large; an effect the other way counts as inactive or inconclusive. Potency is read from the fitted curve at half-maximal effect. Compounds were not picked by outcome, and some 4.7% of all compounds hit somewhere here.

`COc1cccc(C2C(C#N)=C(N)Oc3cc(C)oc(=O)c32)c1OC` (stereo unspecified) gave Marburg entry inh 5%, 2A StopGo -21%, NS1 function inh -4%, Cruzain Triton -1.0%, Lassa entry inh -1%, SARS PLP yeast inconclusive, RE007 growth inh -3% and Cruzain inh noDet -3%.
`O=C(Nc1cc(Cl)ccc1N1CCOCC1)c1ccc(Br)o1` gave Marburg entry inh -21%, 2A StopGo -5%, NS1 function inh 1%, Lassa entry inh 0%, SARS PLP yeast 3% and RE007 growth inh -10%.
`CC(C)C1OC(c2cccc(NC(=O)c3cccs3)c2)OCC1(C)C` (stereo unspecified) gave Marburg entry inh inconclusive, 2A StopGo inconclusive, Lassa entry inh inconclusive, SARS PLP yeast -7% and RE007 growth inh 4%.
`CC1CCCC(NC(=O)CCn2c(=O)oc3ccccc32)C1C` (stereo unspecified) gave Marburg entry inh 4%, 2A StopGo -20%, NS1 function inh -13%, Cruzain Triton 6.9%, Lassa entry inh 0%, SARS PLP yeast -12%, RE007 growth inh 6% and Cruzain inh noDet 5%.
For CN(C)/C=C/c1onc(-c2ccccc2Cl)c1C#N the results were Marburg entry inh inconclusive, 2A StopGo 21%, Lassa entry inh -2%, SARS PLP yeast -3% and RE007 growth inh 43%.
`CN1CCN(CC(O)c2ccccc2)CC1` (stereo unspecified) gave Marburg entry inh -6%, NS1 function inh 12%, Cruzain Triton 1.4%, SARS PLP yeast 8% and Cruzain inh noDet -10%.
CSc1cccc(NC(=O)NNC(=O)C2CCN(S(=O)(=O)N(C)C)CC2)c1 was read as Marburg entry inh -15%[46.1 µM], 2A StopGo -8%, NS1 function inh -6%, Lassa entry inh 19%[46.1 µM], SARS PLP yeast -7% and RE007 growth inh 10%.
O=C1/C(=C\c2ccccn2)SC(=S)N1Nc1ncc(C(F)(F)F)cc1Cl was read as Marburg entry inh 13%, 2A StopGo -10%, NS1 function inh 1%, Cruzain Triton 13µM*, Lassa entry inh 4%, SARS PLP yeast -16%, RE007 growth inh 9% and Cruzain inh noDet 6%.
For COc1ccc(OC)c(NC(=O)CSc2nc(O)cc(=O)n2CC(C)C)c1 the results were Marburg entry inh -7%[46.1 µM], 2A StopGo -2%, Lassa entry inh 9%[46.1 µM], SARS PLP yeast 23% and RE007 growth inh 27%.
`Cc1nnc(Sc2cc(C(=O)NCCCN(C)Cc3ccccc3)c3ccccc3n2)s1` gave Marburg entry inh inconclusive, 2A StopGo -17%, NS1 function inh 5%, Cruzain Triton -3.2%, Lassa entry inh -1%, SARS PLP yeast -24%, RE007 growth inh -5% and Cruzain inh noDet 1%.
`CCSc1nnc(NC(=O)C2C3C=CC(C3)C2C(=O)O)s1` (stereo unspecified) gave Marburg entry inh -7%, 2A StopGo 22%, NS1 function inh 7%, Cruzain Triton 0.6%, Lassa entry inh -19%, SARS PLP yeast -7%, RE007 growth inh 1% and Cruzain inh noDet 5%.
`COc1ccc(/C(N)=N/O)c(OC)c1` gave Marburg entry inh 8%[46.1 µM], 2A StopGo -3%, NS1 function inh -2%, Lassa entry inh 23%[46.1 µM], SARS PLP yeast 2% and RE007 growth inh -6%.
Screening Nc1ccccc1Nc1cc(-c2cccc(Cl)c2)nn1-c1ccccc1 returned Marburg entry inh -11%, 2A StopGo 35%[activator], NS1 function inh 22%, Cruzain Triton -6.2%, Lassa entry inh 20%, SARS PLP yeast -31%, RE007 growth inh 1% and Cruzain inh noDet -18%.
Cc1cccc(NC(=O)CCSc2ccccc2)c1C was read as 2A StopGo 48%[activator], NS1 function inh 1%, SARS PLP yeast 0% and RE007 growth inh -4%.
`N#C/C(=C\c1cc([N+](=O)[O-])c(N2CCOCC2)cc1N1CCOCC1)c1nc2ccccc2[nH]1` gave Marburg entry inh inconclusive, 2A StopGo -15%, NS1 function inh 5%, Cruzain Triton -8.0%, Lassa entry inh inconclusive, SARS PLP yeast 2%, RE007 growth inh 6% and Cruzain inh noDet inconclusive.
`C=CCn1c(SCC(=O)N2CCCC2=O)nc2sc(CC)cc2c1=O` gave Marburg entry inh 13%, 2A StopGo inconclusive, Lassa entry inh 22%, SARS PLP yeast -5% and RE007 growth inh -1%.
Screening Cc1cc2cc(CNC(=O)c3ccc(S(=O)(=O)N4CCCCC4)cc3)ccc2n1C returned Marburg entry inh 3%, 2A StopGo 0%, NS1 function inh 1.3µM*, Cruzain Triton -5.8%, SARS PLP yeast 5%, RE007 growth inh -1% and Cruzain inh noDet inconclusive.
`COC(=O)C(C)Sc1nc2c(cnn2-c2ccc(Cl)cc2)c(=O)[nH]1` (stereo unspecified) gave Marburg entry inh -6%[46.1 µM], 2A StopGo -14%, NS1 function inh 9%, Lassa entry inh inconclusive, SARS PLP yeast -1% and RE007 growth inh -5%.
For Cc1cccc(N(C(=O)CCC(=O)Nc2cc(C)on2)C(C(=O)NC2CCCC2)c2cccnc2)c1 (stereo unspecified) the results were Marburg entry inh 6%[46.1 µM], 2A StopGo 13%, NS1 function inh -9%, SARS PLP yeast 0% and RE007 growth inh -17%.
For O=C(O)c1ccc(N2CCCS2(=O)=O)cc1 the results were Marburg entry inh 2%[46.1 µM], 2A StopGo 3%, NS1 function inh -8%, Lassa entry inh 20%, SARS PLP yeast 2% and RE007 growth inh -13%.
Screening O=C1[C@H]2[C@@H](C(=O)N1c1cccc3ccccc13)C1(C(=O)c3ccccc3C1=O)N1CCC[C@@H]21 returned Marburg entry inh -1%, 2A StopGo -20%, NS1 function inh -11%, Cruzain Triton 1.3%, Lassa entry inh inconclusive, SARS PLP yeast -16%, RE007 growth inh -3% and Cruzain inh noDet -1%.
Cc1ccc(S(=O)(=O)N(C)C)cc1NC(=S)NNC(=O)C1CC1 was read as Marburg entry inh 19%, 2A StopGo -12%, NS1 function inh 31%, Cruzain Triton -2.7%, Lassa entry inh inconclusive, SARS PLP yeast inconclusive, RE007 growth inh 1% and Cruzain inh noDet -3%.
For Cc1[nH]n(-c2ccccc2)c(=O)c1C(=O)Nc1ccccc1 the results were Marburg entry inh 11%[46.1 µM], 2A StopGo 17%, NS1 function inh -10%, Lassa entry inh 14%[46.1 µM], SARS PLP yeast 1% and RE007 growth inh -8%.
Screening NNC(=O)C1CC1(c1ccccc1)c1ccccc1 (stereo unspecified) returned Marburg entry inh inconclusive, 2A StopGo -11%, NS1 function inh 12%, Lassa entry inh 20%, SARS PLP yeast -1% and RE007 growth inh 20%.
FC(F)(F)c1ccc2c(c1)C1C=CCC1C(c1ccncc1)N2 (stereo unspecified) was read as Marburg entry inh inconclusive, 2A StopGo inconclusive, Lassa entry inh inconclusive, SARS PLP yeast -7% and RE007 growth inh 5%.
`Cc1cccc(C)c1NC(=O)c1cccnc1` gave Marburg entry inh inconclusive, 2A StopGo -7%, NS1 function inh 7%, Lassa entry inh 19%, SARS PLP yeast 12% and RE007 growth inh 8%.
Screening Cc1ccc(C)c(Nc2nc(-c3cccnc3)cs2)c1 returned Marburg entry inh inconclusive, 2A StopGo 7%, NS1 function inh -14%, Lassa entry inh -11%[46.1 µM], SARS PLP yeast -4% and RE007 growth inh -3%.
CCOC(=O)c1c(C)[nH]c(CCC(=O)Nc2ccccc2OCC)c1C was read as 2A StopGo -21%, Cruzain Triton 0.7%, Lassa entry inh -2%[46.1 µM] and Cruzain inh noDet 8%.
`O=C(c1ccccc1)c1cccc(NC(=O)c2ccc(Br)o2)c1` gave Marburg entry inh -4%, 2A StopGo -10%, NS1 function inh -120%, Cruzain Triton -0.4%, Lassa entry inh inconclusive, SARS PLP yeast -34%, RE007 growth inh inconclusive and Cruzain inh noDet 10%.
O=C(N/N=C1/CC2C=CCC12)c1ccco1 (stereo unspecified) was read as Marburg entry inh inconclusive, 2A StopGo 0%, NS1 function inh 7%, Cruzain Triton 0.4%, Lassa entry inh inconclusive, SARS PLP yeast 12%, RE007 growth inh 7% and Cruzain inh noDet -12%.
For Cn1cc(C(=O)c2ccc(Cl)cc2Cl)cc1C(=O)N/N=C(\N)COc1ccc(F)cc1 the results were Marburg entry inh inconclusive, 2A StopGo inconclusive, NS1 function inh -58%, Cruzain Triton -3.0%, Lassa entry inh inconclusive, SARS PLP yeast 23%, RE007 growth inh 3% and Cruzain inh noDet -29%.
Screening O=C(Nc1cccc(-c2csc(-c3ccccc3)n2)c1)c1cccs1 returned Marburg entry inh inconclusive, NS1 function inh -1%, Cruzain Triton -0.6%, Lassa entry inh inconclusive, SARS PLP yeast -11%, RE007 growth inh 9% and Cruzain inh noDet inconclusive.
`COc1ccc(C(=O)Cn2c(NCCO)nc3ccccc32)cc1OC` gave Marburg entry inh 12%, 2A StopGo -5%, NS1 function inh 2%, Cruzain Triton 0.4%, Lassa entry inh -16%, SARS PLP yeast 7%, RE007 growth inh -10% and Cruzain inh noDet -1%.
`Cc1ccc(Cl)cc1NC(=O)CCS(=O)(=O)c1ccc(Br)s1` gave Marburg entry inh 19%[46.1 µM], 2A StopGo 36%[activator], Cruzain Triton -2.6%, Lassa entry inh -21%[46.1 µM] and Cruzain inh noDet -17%.
Cc1cc(C)cc(C(=O)OCC(=O)NCCNC(=O)COC(=O)c2cc(C)cc(C)c2)c1 was read as Marburg entry inh -3%[46.1 µM], 2A StopGo -18%, NS1 function inh -13%, Lassa entry inh inconclusive, SARS PLP yeast -4% and RE007 growth inh 3%.
For CCOc1ccccc1C(=O)Nc1cccc(-c2nc3ccccc3s2)c1 the results were Marburg entry inh 23%[46.1 µM], 2A StopGo 3%, Cruzain Triton -5.1%, Lassa entry inh -6%[46.1 µM] and Cruzain inh noDet -7%.
Screening Clc1cc(-c2ccc(/C=N/n3cnnc3)o2)ccc1Br returned Marburg entry inh -11%[46.1 µM], 2A StopGo -1%, NS1 function inh 1%, Lassa entry inh 5%[46.1 µM], SARS PLP yeast -2% and RE007 growth inh -4%.
